# GIV-Gai inh = blocks GIV peptide binding to rat Galpha-i3; P08753; percent of control (FP), % (concentration not given with the values); 210,000 tested, 0.42% active; Galpha-i3/FITC-GIV peptide fluorescence polarization, 90 min; hits give low values; scaled: aluminum fluoride 0%, vehicle 100%;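 active = replicate mean at 85% of control or lower, very high polarization wells dropped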;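 also: wells of about 15 µL received 100 nL stock; the first replicate is given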
# Target sequence (P08753 whole entry, looked up): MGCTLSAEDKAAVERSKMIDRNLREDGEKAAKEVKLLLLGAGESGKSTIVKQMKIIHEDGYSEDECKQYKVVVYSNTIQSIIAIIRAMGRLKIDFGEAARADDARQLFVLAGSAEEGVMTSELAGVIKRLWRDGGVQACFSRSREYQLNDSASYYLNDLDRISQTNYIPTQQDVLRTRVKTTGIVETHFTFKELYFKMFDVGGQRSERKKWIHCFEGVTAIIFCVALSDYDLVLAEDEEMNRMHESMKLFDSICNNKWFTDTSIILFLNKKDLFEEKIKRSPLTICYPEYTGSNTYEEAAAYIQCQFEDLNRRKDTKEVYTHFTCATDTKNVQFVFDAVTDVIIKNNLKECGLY
# Sa growth 42C = S. aureus growth inhibition; S. aureus RN4220 growth, OD600, 20 h, 42 °C; hits give low values; relative growth, % (test concentration not listed); 170,000 tested, 0.53% active; AID 720641;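 active = growth at 42 °C up to 50% and 20 or more points under that at 30 °C, or under 10% at both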;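 also: 300 nL library stock went into each well; scaled to the means of positive and negative controls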
# HCMV NEC inh = cytomegalovirus nuclear egress complex inhibition | inhibition, % (no concentration beside the values) | AID 1918969 | 190,000 tested, 0.15% active | HTRF UL50-UL53 interaction, normalized percent inhibition;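 active = both replicates at 50% or more, plus weaker picks with an unusually low signal ratio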;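 also: stock transfer was 100 nL into about 20 µL; 0% = negative control wells and 100% = wells with untagged competitor protein; inactives centre near -12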
# Sa growth 42C second temp = second read-out of Sa growth 42C, no call of its own (marks repeat the call); relative growth, %; measured here: growth at 30 °C;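 optical density after 20 h as mean of two plates; 100% = untreated growth and lower means inhibition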
# The depositor's hits bear a star; nt = not tested or not shown.
SMILES,GIV-Gai inh,Sa growth 42C,Sa growth 42C second temp,HCMV NEC inh
c1ccc(CNC2=NCCCC2)cc1,100,116,83,nt
CCCN(C(=O)C1CCN(S(=O)(=O)c2c(C)noc2/C=C/c2ccc(C)cc2)CC1)c1ccccc1F,103,101,96,nt
Cc1cc(C)cc(-n2c(SCC(=O)Nc3cccc(F)c3)nc3c([nH]c4ccccc43)c2=O)c1,99,126,68,nt
CCC(=O)N1CCc2cc(S(=O)(=O)NC(C(=O)NCc3ccccc3Cl)C(C)C)ccc21 (stereo unspecified),103,104,93,-15
O=C(CN(c1cccc([N+](=O)[O-])c1)S(=O)(=O)c1ccccc1)NCCSCc1ccc(Cl)cc1,102,nt,nt,7
CC(=O)Nc1ncc(CN2CCOCC2)s1,nt,114,94,1
Cc1nc(C)c(C(=O)Nc2ccc(F)cc2)s1,106,nt,nt,-12
O=C(NC(OCC1COC(C(F)(F)F)(C(F)(F)F)O1)(C(F)(F)F)C(F)(F)F)c1ccco1 (stereo unspecified),104,92,77,-25
CC(C)CCNC(=O)c1ccc2c(c1)N(Cc1ccccc1)CCS2,98,106,101,nt
CCOC(=O)c1c(-c2ccccc2)oc2cc(Br)c(OS(C)(=O)=O)cc12,107,nt,nt,21
COc1cccc(Cn2c(=O)n(CC3CCC(C(=O)N4CCCCC4)CC3)c(=O)c3sccc32)c1 (stereo unspecified),94,79,82,nt
COc1ccccc1CNc1ccc(Br)cn1,103,92,85,-36
O=c1[nH]nc(SCc2nnc(-c3ccc(Cl)cc3)o2)n1C1CCCCC1,108,104,102,nt
CCN1C(=O)C(Cc2nc3ccccc3c(=O)n2-c2ccc(OC)cc2)c2cc(C)ccc21 (stereo unspecified),105,85,89,-14
COc1ccc(C2C=C(c3cccc(OC)c3)Nc3c(C(=O)Nc4ccccc4)cnn32)cc1 (stereo unspecified),110,125,85,nt
CCOC(=O)c1ccc(NC(=O)c2c(NCc3sccc3C)sc3c2CCCCC3)cc1,149,95,75,nt
Cc1ccc(CSc2nnc(N)s2)c(C)c1,nt,85,45,-1
O=C(Cn1ccc(C(F)(F)F)n1)N1N=CCC1(O)C(F)(F)F (stereo unspecified),nt,86,94,-22
COC(=O)NC(Nc1cccc(C(F)(F)F)c1)C(=O)c1ccccc1 (stereo unspecified),nt,107,97,-3
COc1ccccc1NC(=O)CSc1nnc2sc3ccccc3n12,104,110,88,3
CC(c1ccccc1)n1c(SCc2nc(-c3ccc(C(C)(C)C)cc3)no2)n[nH]c1=O (stereo unspecified),103,101,94,-24
COc1cccc(CNC(=O)C2=C(c3ccccc3)c3cc(Cl)ccc3S(=O)(=O)N2C)c1,98,nt,nt,-20
C/C(COc1ccccc1OCC(=O)O)=N\NC(=O)c1ccncc1,97,94,103,-6
COc1ccc(C(=O)CCC(=O)Nc2ccc(C)c(Cl)c2)cc1,105,106,93,nt
COc1ccc(N2CCN(C(=O)c3cc(NS(=O)(=O)c4ccc(F)cc4)ccn3)CC2)cc1,97,90,89,nt
CCOc1ccc2nc(N3CCCC(C(=O)Nc4ccc(C)cc4Cl)C3)sc2c1 (stereo unspecified),109,105,84,nt
O=C(COC(=O)c1ccccc1-c1ccccc1)c1ccccc1,nt,94,93,-9
O=C(CCn1c(=O)c2cccn2c2cccnc21)N1CCN(c2cccc(Cl)c2)CC1,101,73,55,nt
O=C1CCCc2nc(N3CCOCC3)sc21,99,128,80,-31
CC(C)CN(C(=O)CN1CCN(c2ncccn2)CC1)C1CCS(=O)(=O)C1 (stereo unspecified),nt,98,78,-6
O=C1CC(C(=O)O)S/C(=N\N=C2CCCC2)N1 (stereo unspecified),105,104,97,-23
CC1CCCCC1NC(=O)/C(C#N)=C/c1cccc(O)c1 (stereo unspecified),nt,102,92,-26
Cc1oc(CC(C)C)cc1C(=O)O,97,97,86,-13
Cc1ccc(-c2nn(C)c(=O)c3ccccc23)cc1CNS(C)(=O)=O,102,100,82,nt
COc1cccc(C(=O)Nc2ccc(-c3cn4ccccc4n3)cc2)c1,108,90,84,nt
Cc1ccc(C(=O)c2ccccc2C(=O)OCC(N)=O)cc1,nt,121,94,-10
Nc1c(C(=O)Nc2ccc(S(N)(=O)=O)cc2)sc2nc(-c3cccs3)cc(C(F)(F)F)c12,142,nt,nt,-21
CN(C1CCCCC1)S(=O)(=O)c1ccc2c(c1)c(=O)c(C(=O)NCCc1ccc(Cl)cc1)cn2C,106,108,88,-12
CCSc1ncc2c(=O)n(CC(=O)N3CCC(C)CC3)cnc2n1,109,nt,nt,-4
CC1=C(C(=O)Nc2ccc(Br)cn2)C(c2cc([N+](=O)[O-])ccc2Cl)C2=C(CCCC2=O)N1 (stereo unspecified),102,nt,nt,-60
COc1cccc(NC(N)=O)c1,100,85,78,-31
CCOC(=O)CC1Sc2ccccc2N=C1SCC(=O)Nc1cccc(C(F)(F)F)c1 (stereo unspecified),99,58,74,-4
CC(C)CN1Cc2cccc(C(=O)O)c2C1=O,107,115,96,4
CCSc1cnn(C2CCCCC2)c(=O)c1Cl,106,91,38,-6
CCSc1nnc(NC2=NCCC2)s1,nt,112,94,-32
CN1C(=O)C(=Cc2nc3ccccc3c(=O)n2-c2ccc([N+](=O)[O-])cc2)c2cc(Br)ccc21,103,nt,nt,-17
O=C(O)CCc1ccc(-c2ccccc2)n1-c1cccc(Br)c1,102,92,60,-36
Cc1ccc(-n2c(=O)c3c(C)c(C)sc3n(Cc3ccc(F)cc3Cl)c2=O)cc1C,102,101,101,1
O=c1[nH]c2ccccc2c2oc(-c3ccccc3)nc12,100,104,82,-14
Cc1ccc(C(=O)c2cn(Cc3cccc(F)c3)c3nc(C)ccc3c2=O)cc1,113,96,88,-21
COc1ccc(CCNC(=O)c2csc3c2CCCCC3)c(OC)c1,97,81,93,-2
COC(=O)C1(C)Oc2cc(Cl)ccc2NC1=O (stereo unspecified),109,101,96,5
CCOc1ccc(S(=O)(=O)NCCc2sc3nc(-c4ccc(F)cc4)nn3c2C)cc1,107,126,94,nt
CC(c1ccccc1)N1CC(C(=O)Nc2sccc2C#N)CC1=O (stereo unspecified),nt,80,84,-25
C=CCn1c(=S)sc2c(=O)n(CC(=O)Nc3ccc(F)cc3)cnc21,nt,99,93,-6
CC(=O)Oc1ccc2occ(C(=O)c3ccc(Br)s3)c2c1,nt,104,84,-9
O=C(Nc1ccc(Cl)cc1)c1cc2nc(-c3ccc4c(c3)OCO4)cc(C(F)(F)F)n2n1,103,98,83,-20
CNC(=O)C1CCN(S(=O)(=O)c2c(C)noc2/C=C/c2ccc(OC)cc2)CC1,106,103,91,-39
c1ccc(CCNc2cc(-c3ccccc3)nc3nncn23)cc1,103,156,132,nt
CC(=O)Nc1c2n(c3ccc(F)cc13)CC(C)(C(=O)NC1CCCC1)N(C(C)c1ccccc1)C2=O (stereo unspecified),100,nt,nt,-22

# Looked up above.
# O=C(O)CCc1ccc(-c2ccccc2)n1-c1cccc(Br)c1 in Sa growth 42C is listed with 92
# CC(c1ccccc1)N1CC(C(=O)Nc2sccc2C#N)CC1=O (stereo unspecified) in Sa growth 42C is listed with 80

# Carrying on:
SMILES,GIV-Gai inh,Sa growth 42C,Sa growth 42C second temp,HCMV NEC inh
Cc1ccc2oc(=O)c3cc(C(=O)Nc4ccc(C)c(F)c4)sc3c2c1,100,96,94,-24
CCOc1ccc(C(=O)NCC(=O)n2nc(C)cc2C)cc1,98,83,95,nt
CC(NC(=O)c1cc(=O)[nH]c2ccc(Br)cc12)c1ccc2c(c1)OCCO2 (stereo unspecified),100,104,81,nt
O=C1CN(C(=O)COc2ccccc2)c2ccccc2N1,111,95,100,-16
O=C(Nc1ccc(Br)cc1F)N1CCN(Cc2nc3cccnc3n2-c2cccc(F)c2)CC1,105,nt,nt,7
CCC(C)Sc1nc2c(cnn2CCO)c(=O)[nH]1 (stereo unspecified),103,nt,nt,-7
Cc1cccc(-c2noc(CN(C(=O)c3ccc(C)c(C)c3)C(C)C)n2)c1,100,105,89,-8
CC(=O)SCC(C)C(=O)O (stereo unspecified),103,97,96,-23
COc1ccc(COC(=O)c2[nH]c3c(c2C)C(=O)CC(c2ccc(OC)c(OC)c2)C3)cc1 (stereo unspecified),107,108,92,-11
CC1CN(C(=O)c2ccc(C#N)cc2)CC(C)O1 (stereo unspecified),nt,91,95,-32
CCSc1ncc(Cl)c(C(=O)Nc2ccc(S(=O)(=O)N(C)c3ccccc3)cc2)n1,99,113,92,0
Cc1cccc(NC(=O)Cn2c(=O)n(CCCCCC(=O)NCc3ccc4c(c3)OCO4)c(=O)c3sccc32)c1,104,110,92,-3
CN(C(=O)c1cccc(N)c1)C1CCCCC1,105,100,81,-30
CC(C)(C)c1cc(NC(=O)c2ccc3c(c2)S(=O)(=O)c2ccccc2C3=O)on1,nt,82,98,-36
Cc1cc(C)c2c(n1)SCCN2C(=O)Nc1ccccc1,104,nt,nt,-2
CCC(C)(C)NC(=O)Cc1ccc(F)cc1,96,102,96,-9
CCCNC(=O)CCn1nc(C)c2c(C)n(-c3ccccc3)nc2c1=O,104,89,93,-30
CCOc1ccc(S(=O)(=O)c2cn(CC(=O)Nc3ccc(C(C)C)cc3)c3nc(C)ccc3c2=O)cc1,122,nt,nt,11
COc1ccc(S(=O)(=O)Nc2ccc(C(=O)NCC(=O)O)cc2)cc1,nt,101,97,-12
Cc1ccc(C(C)C)c(OC(C)C(=O)Nc2onc3c2CCCC3)c1 (stereo unspecified),103,nt,nt,5

# Some of the entries above in another layout.
SMILES	GIV-Gai inh	Sa growth 42C	Sa growth 42C second temp	HCMV NEC inh
CC(NC(=O)c1cc(=O)[nH]c2ccc(Br)cc12)c1ccc2c(c1)OCCO2 (stereo unspecified)	100	104	81	nt
O=C1CN(C(=O)COc2ccccc2)c2ccccc2N1	111	95	100	-16
O=C(Nc1ccc(Br)cc1F)N1CCN(Cc2nc3cccnc3n2-c2cccc(F)c2)CC1	105	nt	nt	7
CCC(C)Sc1nc2c(cnn2CCO)c(=O)[nH]1 (stereo unspecified)	103	nt	nt	-7
Cc1cccc(-c2noc(CN(C(=O)c3ccc(C)c(C)c3)C(C)C)n2)c1	100	105	89	-8
CC(=O)SCC(C)C(=O)O (stereo unspecified)	103	97	96	-23
COc1ccc(COC(=O)c2[nH]c3c(c2C)C(=O)CC(c2ccc(OC)c(OC)c2)C3)cc1 (stereo unspecified)	107	108	92	-11
CC1CN(C(=O)c2ccc(C#N)cc2)CC(C)O1 (stereo unspecified)	nt	91	95	-32
CCSc1ncc(Cl)c(C(=O)Nc2ccc(S(=O)(=O)N(C)c3ccccc3)cc2)n1	99	113	92	0
Cc1cccc(NC(=O)Cn2c(=O)n(CCCCCC(=O)NCc3ccc4c(c3)OCO4)c(=O)c3sccc32)c1	104	110	92	-3
CN(C(=O)c1cccc(N)c1)C1CCCCC1	105	100	81	-30
CC(C)(C)c1cc(NC(=O)c2ccc3c(c2)S(=O)(=O)c2ccccc2C3=O)on1	nt	82	98	-36
Cc1cc(C)c2c(n1)SCCN2C(=O)Nc1ccccc1	104	nt	nt	-2
CCC(C)(C)NC(=O)Cc1ccc(F)cc1	96	102	96	-9
CCCNC(=O)CCn1nc(C)c2c(C)n(-c3ccccc3)nc2c1=O	104	89	93	-30
CCOc1ccc(S(=O)(=O)c2cn(CC(=O)Nc3ccc(C(C)C)cc3)c3nc(C)ccc3c2=O)cc1	122	nt	nt	11
COc1ccc(S(=O)(=O)Nc2ccc(C(=O)NCC(=O)O)cc2)cc1	nt	101	97	-12
Cc1ccc(C(C)C)c(OC(C)C(=O)Nc2onc3c2CCCC3)c1 (stereo unspecified)	103	nt	nt	5

# Carrying on:
SMILES,GIV-Gai inh,Sa growth 42C,Sa growth 42C second temp,HCMV NEC inh
COC(=O)c1cc(OC)c(OC)cc1NC(=O)c1c(C)oc2ccc(OCc3ccccc3)cc12,113,nt,nt,-2
COc1ccccc1-c1noc(CCCC(=O)Nc2cc(C)ccc2C)n1,99,99,91,-2
CC(NC(=O)CCc1cn(Cc2ccccc2Cl)c2ccccc12)c1ccccc1 (stereo unspecified),109,120,95,nt
Cc1ccc(NC(=O)Cc2n[nH]c(=O)c3ccccc23)c(O)c1,nt,109,91,6
Cc1c(N)c(C)c(N)c(C)c1N,101,93,100,-24
Cc1nc2c(-c3ccccc3)c(C)nn2c(C)c1CCC(=O)Nc1ccccc1F,98,110,93,-32
CCOCCCNc1nc2ccccc2c2nc(CCn3c(C)nc4ccccc43)nn12,101,nt,nt,12
Cn1c(=O)c2sccc2n2c(CCCC(=O)NCc3ccccc3)nnc12,108,88,96,nt
COc1ccccc1OCCOc1ccc([N+](=O)[O-])cc1/C=C1/C(=O)N(c2ccccc2)N=C1C,109,nt,nt,4
CC(Oc1ccccc1F)C(=O)N/N=C/c1cnn(-c2ccccc2)n1 (stereo unspecified),nt,48,13,-32
CCc1ccc2oc(C(=O)N(Cc3ccc(N(C)C)cc3)Cc3ccco3)c(C)c2c1,103,110,90,-4
O=C(CSc1ccc2nnc(-c3ccccn3)n2n1)c1ccccc1,101,82,80,nt
CCS(=O)(=O)NCCc1csc2nc(-c3ccc(OC)cc3)nn12,99,127,86,nt
CCCC(=O)Nc1c(O)c2ccccc2[nH]c1=O,104,104,88,-12

# Bioassay records: PubChem, ICCB-Longwood Screening Facility, Harvard Medical School
